Vaccinia stage: blocks a specific stage of Vaccinia orthopoxvirus infection, primary screen, cell-based, single point; Vaccinia-infected cells, mCherry/Venus stage reporter fluorescence; hits give low values; some inactives read as strong as hits; activity change (mCherry), % (no concentration beside the values); 0.01% of 89,000 active;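 active means mCherry past -33% and 40 or more points under the early reporter, replicates agreeing; inconclusive means past -33% without that gap or agreement; tested in A549 cells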;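 further: scaled between vehicle wells and reference inhibitor wells; 23 nL library stock went into each well; one replicate is shown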
Vaccinia stage Venus: recorded beside Vaccinia stage, whose call it bears; activity change (Venus), %; measured here: Venus reporter, other viral stage;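 negative = less Venus signal; first of two replicates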
* marks the source's active call; other numbers are inactive results; ? = inconclusive; nt = not tested or not shown; & = joins results of further samples.

Results follow in this order: Vaccinia stage | Vaccinia stage Venus
[1] Cc1ccc(S(=O)(=O)N2[C@@H]3CNC[C@H]2C3c2ccc(-c3cccc(F)c3)cc2)cc1 (stereo partly drawn)
  -6&4 | 5&-18
[2] Cc1ccc(-c2ccc3c(c2)O[C@@H](CN(C)Cc2cccc(C(=O)O)c2)[C@H](C)CN([C@@H](C)CO)S3(=O)=O)cc1
  -34 | -30
[3] COc1ccc(S(=O)(=O)Nc2ccc3c(c2)C(=O)N([C@@H](C)CO)C[C@H](C)[C@@H](CN(C)C(=O)Nc2cccc4ccccc24)O3)cc1
  17 | 10
[4] CO[C@@H]1CN(C)C(=O)c2ccc(NS(=O)(=O)c3ccc(Cl)cc3)cc2OC[C@@H](C)N(C(=O)NC(C)C)C[C@H]1C
  -9 | -5
[5] N#C[C@H]1[C@@H](c2ccccc2)[C@@H](CO)N1S(=O)(=O)c1ccc(-c2ccccc2)cc1
  -27 | -20
[6] CC(C)NC(=O)N(C)C[C@H]1Oc2ncc(C#Cc3ccc(F)cc3)cc2C(=O)N([C@@H](C)CO)C[C@@H]1C
  8 | 4
[7] COc1ccc(NC(=O)N(C)C[C@H]2OCCCC[C@@H](C)Oc3ccc(NC(=O)Nc4c(C)noc4C)cc3C(=O)N([C@H](C)CO)C[C@H]2C)cc1
  11 | 4
[8] COCC(=O)N1[C@@H](CO)[C@H](c2ccccc2)[C@@H]1CN(C)C(=O)c1cccnc1
  10 | -2
[9] Cc1cccc(S(=O)(=O)N[C@@H]2CC[C@H](CCNS(=O)(=O)c3ccccc3F)O[C@@H]2CO)c1
  3 | 7
[10] C[C@@H]1CN([C@@H](C)CO)C(=O)c2cc(NC(=O)Nc3ccc4c(c3)OCO4)ccc2O[C@@H](C)CCCCO[C@@H]1CN(C)Cc1ccccc1
  -19 | -18
[11] CC=Cc1ccc2n(c1=O)C[C@H]1[C@H](CO)[C@@H](C(=O)NCC)N(C(=O)c3cccnc3)[C@@H]21 (mixture of isomers)
  17 | 6
[12] CCCNC(=O)Nc1ccc2c(c1)C(=O)N(C)[C@H]1CC[C@@H](CC(=O)NCC3CCCCC3)O[C@@H]1CO2
  9 | 8
[13] C[C@@H]1CN([C@@H](C)CO)C(=O)Cc2cc(NC(=O)C3CC3)ccc2O[C@@H]1CN(C)Cc1ccc2c(c1)OCO2
  2 | 3
[14] CCCNC(=O)N1CC2(C1)CN(C(=O)Nc1ccc(F)cc1)[C@@H](CO)c1[nH]c3cc(OC)ccc3c12
  15 | -3
[15] CC(C)NC(=O)N(C)C[C@H]1Oc2ccc(NC(=O)Nc3ccc(F)cc3)cc2C(=O)N([C@H](C)CO)C[C@H]1C
  10 | 5
[16] C[C@H]1CN([C@@H](C)CO)C(=O)Cc2cc(NS(C)(=O)=O)ccc2O[C@H]1CN(C)Cc1ccc(C(=O)O)cc1
  15 | 13
[17] C[C@@H]1CN([C@@H](C)CO)C(=O)c2cccc(NS(=O)(=O)c3ccc(Cl)cc3)c2O[C@H]1CN(C)Cc1ccccc1
  2 | 0
[18] Cc1noc(C)c1NC(=O)N[C@@H]1CC[C@@H](CCNC(=O)C2CCCC2)O[C@H]1CO
  6 | 10
[19] C[C@H](CO)N1C[C@H](C)[C@@H](CN(C)CC2CCCCC2)OCCCC[C@H](C)Oc2ccc(NC(=O)C3CCCCC3)cc2C1=O
  ? | nt
[20] O=C(C[C@@H]1CC[C@@H](NC(=O)CC2CC2)[C@@H](CO)O1)NCc1ccc(-c2ccccc2)cc1
  -6 | -3
[21] O=C(NC1CC1)C1=C[C@@H](c2coc3ccccc3c2=O)C[C@@H](OCc2ccc(CO)cc2)O1
  4 | 0
[22] O=C(C[C@H]1C[C@H]2c3cc(NC(=O)C4CCC4)ccc3O[C@H]2[C@H](CO)O1)NCCN1CCCCC1
  3 | 3
[23] C[C@@H]1CN([C@@H](C)CO)C(=O)c2cccc(N(C)C)c2O[C@@H]1CN(C)S(C)(=O)=O
  8 | 2
[24] CO[C@@H]1CC[C@H]2CCN(C)C(=O)C[C@@H](c3ccccc3)CN(C)C(=O)c3cccc(C#N)c3OC[C@H]1O2
  11 | 9
[25] CS(=O)(=O)N1[C@@H]2c3cccc(=O)n3C[C@H]1[C@H](CO)[C@H]2C(=O)NCc1ccccc1
  0 | 4
[26] COc1ccc2c3c([nH]c2c1)[C@@H](CO)N(C(=O)c1cccnc1)CC31CN(Cc2cccnc2)C1
  1 | -3
[27] O=C(Cc1ccncc1)NCC[C@@H]1CC[C@H](NC(=O)Nc2cccc(F)c2)[C@H](CO)O1
  4 | 5
[28] C[C@@H]1CN([C@@H](C)CO)S(=O)(=O)c2ccc(-c3cccc(C#N)c3)cc2O[C@H]1CN(C)C(=O)c1ccc(F)cc1
  -1 | -2
[29] C[C@H]1CN([C@@H](C)CO)C(=O)Cc2cc(NC(=O)Cc3ccccc3)ccc2O[C@H]1CN(C)Cc1ccc2c(c1)OCO2
  16 | -10
[30] COc1ccc(NC(=O)Nc2ccc3c(c2)CC(=O)N([C@H](C)CO)C[C@@H](C)[C@@H](CN(C)Cc2ccc(C(=O)O)cc2)O3)cc1
  0 | 1

Structures shown so far that have an aryl methoxy group, in the order listed:
Results follow in this order: Vaccinia stage | Vaccinia stage Venus
[3] COc1ccc(S(=O)(=O)Nc2ccc3c(c2)C(=O)N([C@@H](C)CO)C[C@H](C)[C@@H](CN(C)C(=O)Nc2cccc4ccccc24)O3)cc1
  17 | 10
[7] COc1ccc(NC(=O)N(C)C[C@H]2OCCCC[C@@H](C)Oc3ccc(NC(=O)Nc4c(C)noc4C)cc3C(=O)N([C@H](C)CO)C[C@H]2C)cc1
  11 | 4
[14] CCCNC(=O)N1CC2(C1)CN(C(=O)Nc1ccc(F)cc1)[C@@H](CO)c1[nH]c3cc(OC)ccc3c12
  15 | -3
[26] COc1ccc2c3c([nH]c2c1)[C@@H](CO)N(C(=O)c1cccnc1)CC31CN(Cc2cccnc2)C1
  1 | -3
[30] COc1ccc(NC(=O)Nc2ccc3c(c2)CC(=O)N([C@H](C)CO)C[C@@H](C)[C@@H](CN(C)Cc2ccc(C(=O)O)cc2)O3)cc1
  0 | 1

Values by screen from above.
Vaccinia stage for entries 22–28, in order: 3, 8, 11, 0, 1, 4, -1

(listing goes on)
Results follow in this order: Vaccinia stage | Vaccinia stage Venus
[31] COc1ccc(S(=O)(=O)N(C)C[C@H]2Oc3ccc(NC(=O)NC(C)C)cc3CC(=O)N([C@H](C)CO)C[C@H]2C)cc1
  24 | 22
[32] CCCNC(=O)N1CC(=O)N2[C@H](C1)[C@H](c1ccc(-c3ccc(F)cc3)cc1)[C@@H]2CO
  -12 | -11
[33] C[C@@H]1CN([C@H](C)CO)S(=O)(=O)c2ccc(C#Cc3ccncc3)cc2O[C@@H]1CN(C)C(=O)C1CCOCC1
  -10 | -3
[34] CNC[C@@H]1Oc2ncc(-c3cccc(C(=O)N(C)C)c3)cc2C(=O)N([C@@H](C)CO)C[C@H]1C
  19 | 3
[35] C[C@@H]1CCCCO[C@@H](CN(C)C(=O)Nc2ccc(C(F)(F)F)cc2)[C@H](C)CN([C@@H](C)CO)C(=O)c2cc(NC(=O)Nc3ccc4c(c3)OCO4)ccc2O1
  -23 | -19
[36] C/C=C/c1ccc([C@@H]2[C@@H](CO)N3C(=O)CN(S(=O)(=O)c4ccccc4)C[C@@H]23)cc1
  ? | nt
[37] C[C@@H]1CN([C@H](C)CO)C(=O)c2cc(-c3cccc(F)c3)cnc2O[C@@H]1CN(C)CC1CCOCC1
  -4 | 0
[38] COc1cccc(NC(=O)C[C@@H]2CC[C@H]3[C@@H](COc4ccc(NC(=O)C5CCC5)cc4C(=O)N3C)O2)c1
  20 | 16
[39] CN1C(=O)c2cc(NC(=O)c3ccc(F)cc3)ccc2OC[C@H]2O[C@@H](CC(=O)N3CCOCC3)CC[C@H]21
  2 | -1
[40] C[C@@H]1CN([C@@H](C)CO)C(=O)c2cc(NS(=O)(=O)c3ccc(F)cc3)ccc2O[C@@H](C)CCCCO[C@H]1CN(C)C
  12 | 10
[41] C[C@@H]1CN([C@H](C)CO)C(=O)c2cccc(NS(=O)(=O)c3ccc(Cl)cc3)c2O[C@@H]1CN(C)Cc1ccccc1
  -14 | -12
[42] O=C(Cc1cccnc1)N1CC(=O)N2[C@H](CO)[C@@H](c3ccc(/C=C/c4ccccc4)cc3)[C@@H]2C1
  -35 | -28
[43] COc1cccc(S(=O)(=O)N(C)C[C@@H]2Oc3ncc(C#CCN(C)C)cc3C(=O)N([C@@H](C)CO)C[C@H]2C)c1
  -18 | -8
[44] O=C(NC1CCCCC1)N[C@@H]1CC[C@@H](CCNS(=O)(=O)c2ccc(F)cc2)O[C@H]1CO
  -10 | 9
[45] CS(=O)(=O)N1[C@H](C#N)[C@H](c2ccccc2-c2ccccc2F)[C@H]1CO
  3 | 0
[46] CC(C)C#Cc1ccc2c(c1)O[C@H](CN(C)C)[C@@H](C)CN([C@H](C)CO)S2(=O)=O
  -31 | -28
[47] CO[C@H](CN(C)C(=O)c1cnccn1)[C@H](C)CN([C@H](C)CO)S(=O)(=O)c1ccccc1
  16 | 14
[48] COc1ccc2c3c([nH]c2c1)[C@H](CO)N(C(=O)Nc1ccc(F)cc1)CC31CN(S(=O)(=O)c2cn(C)cn2)C1
  -12 | -20
[49] C[C@H]1CN([C@@H](C)CO)S(=O)(=O)c2ccc(-c3cccnc3)cc2O[C@@H]1CN(C)CC1CCOCC1
  2 | -1
[50] Cc1ccccc1NC(=O)Nc1ccc2c(c1)C(=O)N(C)[C@H]1CC[C@@H](CC(=O)NCC3CC3)O[C@H]1CO2
  10 | 13
[51] CC(C)CC#Cc1ccc2c(c1)O[C@@H](CN(C)C(=O)NC(C)C)[C@H](C)CN([C@@H](C)CO)S2(=O)=O
  -16 | -1
[52] C[C@@H]1CCCCO[C@@H](CN(C)C(=O)Nc2ccccc2)[C@H](C)CN([C@H](C)CO)C(=O)c2cc(NS(=O)(=O)c3ccccc3)ccc2O1
  -25 | -28
[53] c1cc(CN2[C@@H]3CNC[C@H]2C3c2ccc(-c3ccncc3)cc2)cc(-c2ccncc2)c1 (stereo partly drawn)
  -6 | 0
[54] C[C@@H]1CN([C@H](C)CO)C(=O)c2cc(NC(=O)CCCN(C)C)ccc2O[C@H]1CN(C)C
  17 | 7
[55] CCN(C[C@@H]1N[C@@H](CO)[C@H]1c1ccccc1)C(=O)c1ccncc1
  -2 | -1
[56] C[C@@H]1CN([C@@H](C)CO)C(=O)c2cccc(NS(=O)(=O)c3cn(C)cn3)c2O[C@@H]1CN(C)Cc1ccc(C(F)(F)F)cc1
  16 | 5
[57] CO[C@@H]1CN(C)C(=O)c2cc(NC(C)=O)ccc2OC[C@H](C)NC[C@@H]1C
  9 | 6
[58] O=C(CCN1CCCCC1)N[C@@H]1CC[C@@H](CCNS(=O)(=O)c2ccc(Cl)cc2)O[C@H]1CO
  3 | -2
[59] COCC(=O)N1CC[C@@H]2[C@H]1c1cc(-c3ccc(OC)cc3)ccc1N(C)[C@@H]2CO
  8 | 2
[60] C[C@@H]1CN([C@H](C)CO)C(=O)c2cc(NC(=O)C3CCCCC3)ccc2O[C@@H](C)CCCCO[C@H]1CN(C)Cc1ccc(C(=O)O)cc1
  16 | 3

As entered above.
Vaccinia stage Venus, compound 40 is entered as 10
Vaccinia stage Venus, compound 52 is entered as -28

(cont.)
Results follow in this order: Vaccinia stage | Vaccinia stage Venus
[61] C[C@H]1CN([C@@H](C)CO)C(=O)Cc2cc(NC(=O)Nc3ccc4c(c3)OCO4)ccc2O[C@H]1CN(C)Cc1ccc(C(F)(F)F)cc1
  ? | nt
[62] COCC(=O)N(C)C[C@H]1Oc2ncc(-c3cccc(OC)c3)cc2C(=O)N([C@H](C)CO)C[C@H]1C
  14 | 7
[63] CCCC#Cc1ccc2c(c1)O[C@@H](CN(C)C(=O)Nc1ccc(OC)cc1)[C@H](C)CN([C@@H](C)CO)S2(=O)=O
  ? | nt
[64] COc1ccc(CN(C)C[C@H]2OCCCC[C@H](C)Oc3ccc(NC(=O)CCC(F)(F)F)cc3C(=O)N([C@H](C)CO)C[C@@H]2C)cc1
  -9 | -6
[65] CN(C)CC(=O)N1[C@H](CO)[C@@H](c2ccccc2-c2ccccc2F)[C@@H]1C#N
  -8 | -9
[66] Cc1noc(C)c1NC(=O)N[C@@H]1CC[C@H](CCNC(=O)C2CCOCC2)O[C@H]1CO
  0 | -1
[67] C[C@@H]1CN([C@@H](C)CO)C(=O)c2cc(-c3ccccc3F)cnc2O[C@H]1CN(C)C(=O)C1CC1
  19 | 0
[68] O=C1CN(Cc2ccc(F)cc2)C[C@@H]2[C@H](c3ccc(Br)cc3)[C@@H](CO)N12
  39 | 20
[69] COc1ccc(NC(=O)N(C)C[C@H]2OCCCC[C@H](C)Oc3ccc(NS(=O)(=O)c4cccs4)cc3C(=O)N([C@@H](C)CO)C[C@H]2C)cc1
  ? | nt
[70] CO[C@H]1CN(C)C(=O)c2cc(NC(=O)C3CCC3)ccc2OC[C@@H](C)N(Cc2ccc(F)cc2)C[C@H]1C
  -22 | -14
[71] COc1ccc(NC(=O)Nc2ccc3c(c2)[C@@H]2C[C@@H](CC(=O)N(C)C)O[C@H](CO)[C@@H]2O3)cc1
  15 | 15
[72] Cc1noc(C)c1NC(=O)Nc1ccc2c(c1)C(=O)N([C@@H](C)CO)C[C@H](C)[C@@H](CN(C)C)OCCCC[C@@H](C)O2
  1 | 0
[73] C[C@@H]1CN([C@H](C)CO)C(=O)c2cc(NS(C)(=O)=O)ccc2O[C@H]1CN(C)CC1CC1
  11 | 8
[74] O=S(=O)(Cc1ccccc1)N1CCCCN2[C@H](CO)[C@H](c3ccc(-c4ccc(F)cc4)cc3)[C@H]2C1
  ? | nt
[75] CO[C@@H](C(=O)N(C)C[C@H]1OCc2ccccc2-c2ccccc2C(=O)N([C@H](C)CO)C[C@H]1C)c1ccccc1
  4 | -5

Whole records, looked up by structure.
`Cc1noc(C)c1NC(=O)N[C@@H]1CC[C@H](CCNC(=O)C2CCOCC2)O[C@H]1CO` is listed as Vaccinia stage = 0; Vaccinia stage Venus = -1
`O=C1CN(Cc2ccc(F)cc2)C[C@@H]2[C@H](c3ccc(Br)cc3)[C@@H](CO)N12` is listed as Vaccinia stage = 39; Vaccinia stage Venus = 20

Screening results from PubChem.

Not all compounds are listed; rates above refer to the full screens.
